NOMO-1 viab – STK33 inhibitor candidate reducing NOMO-1 cell viability; NOMO-1 AML viability, CellTiter-Glo luminescence, 72 h; inhibition, % (test concentration not listed); actives 7.5% (n = 37,000);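 active means most replicates above 80%; inconclusive means exactly half above 80%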;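 further: wells of about 30 µL received 25 nL stock; 0% = median of vehicle wells and 100% = reference inhibitor level; the first replicate is given; inactives centre near 10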
Numbers without * were called inactive; u = inconclusive.

SMILES	NOMO-1 viab
C[C@@H]1CN([C@@H](C)CO)C(=O)c2cccc(NC(=O)c3cnccn3)c2O[C@H]1CN(C)CC1CC1	-2.5
CC(C)OC(=O)CSc1nc(-c2cccs2)cc(C(F)(F)F)c1C#N	40.3
Cc1onc(-c2c(Cl)cccc2Cl)c1-c1csc(CCn2c(=O)oc3ccccc32)n1	54.6
COc1cc2oc(-c3ccccc3)cc(=O)c2c(OC)c1OC	7.4
O=C(CCS(=O)(=O)c1nc(-c2ccccc2)cc(C(F)(F)F)n1)Nc1ccc(Cl)cc1Cl	125.5*
Cc1ccc(C2Nn3c(nnc3-c3ccccc3)SC2C(=O)NCC2CCCO2)cc1 (configuration not stated)	10.0
CC(=O)c1c(O)cc(O)cc1CC(=O)O	-8.3
C[C@H](CO)N1C[C@H](C)[C@@H](CN(C)Cc2ccc(Oc3ccccc3)cc2)Oc2ccc(NC(=O)Nc3ccc4c(c3)OCO4)cc2C1=O	32.0
O=C(CSc1nc(C(F)(F)F)cc(=O)[nH]1)Nc1ccc(F)cc1	-17.8
COc1cc(OC)c(NC(=O)CSc2ccccn2)cc1Cl	-1.1
COc1ccc(NC(=O)N(C)C[C@@H]2Oc3c(NC(=O)Nc4c(C)noc4C)cccc3C(=O)N([C@H](C)CO)C[C@@H]2C)cc1	4.3
C[C@@H]1CCCCO[C@@H](CN(C)S(=O)(=O)c2ccc(F)cc2)[C@@H](C)CN([C@H](C)CO)C(=O)c2cc(NC(=O)CCC(F)(F)F)ccc2O1	-2.4
Cc1noc(C)c1NC(=O)Nc1ccc2c(c1)C(=O)N([C@H](C)CO)C[C@H](C)[C@@H](CN(C)S(=O)(=O)c1cn(C)cn1)OCCCC[C@@H](C)O2	-0.3
Cc1ccc(S(=O)(=O)Nc2ccc3c(c2)CC(=O)N([C@@H](C)CO)C[C@H](C)[C@H](CN(C)Cc2ccccc2)O3)cc1	26.0
COc1ccc(NC(=O)N(C)C[C@H]2OCCCC[C@@H](C)Oc3ccc(NC(=O)NC(C)C)cc3C(=O)N([C@H](C)CO)C[C@@H]2C)cc1	2.5
C[C@H]1CN([C@@H](C)CO)C(=O)Cc2cc(N(C)C)ccc2O[C@H]1CN(C)Cc1ccccc1	5.0
C[C@H](CO)N1C[C@H](C)[C@@H](CN(C)Cc2ccc(C(F)(F)F)cc2)Oc2ccc(NC(=O)Cc3cn(C)c4ccccc34)cc2C1=O	47.6
COC(=O)C1=CO[C@@H](C)[C@H]2CN3CCc4c([nH]c5ccccc45)[C@@H]3C[C@H]12	6.1
C[C@H]1CN([C@@H](C)CO)C(=O)Cc2cc(NC(=O)C3CC3)ccc2O[C@H]1CN(C)Cc1ccc2c(c1)OCO2	12.1
O=C(COc1ccc2c(-c3ccccc3)cc(=O)oc2c1)Nc1cc(C(F)(F)F)ccc1Cl	u

A draw from above in order of molar mass, ascending:
SMILES	NOMO-1 viab
CC(=O)c1c(O)cc(O)cc1CC(=O)O	-8.3
O=C(CSc1nc(C(F)(F)F)cc(=O)[nH]1)Nc1ccc(F)cc1	-17.8
Cc1onc(-c2c(Cl)cccc2Cl)c1-c1csc(CCn2c(=O)oc3ccccc32)n1	54.6

(list continues)
SMILES	NOMO-1 viab
Nc1nc(N)n(-c2ccccc2)c(=Nc2ccccc2)n1	15.7
COc1cccc(NC(=O)CSc2nc(-c3ccccc3)c(-c3ccccc3)[nH]2)c1	16.3
CC(Oc1ccc(C(C)(C)C)cc1)C(=O)NCc1ccco1 (configuration not stated)	36.7
C[C@@H]1CN([C@@H](C)CO)C(=O)c2cc(NC(=O)Nc3ccc(F)cc3)ccc2O[C@H]1CN(C)Cc1ccc(Cl)c(Cl)c1	124.6*
N#CCCN(/N=C/c1ccccc1)C1=NS(=O)(=O)c2ccccc21	15.7
C[C@@H]1CN([C@H](C)CO)C(=O)c2cc(NC(=O)C3CC3)ccc2O[C@@H]1CN(C)C(=O)NC1CCCCC1	17.1
O=C(CN1C(=O)c2ccccc2S1(=O)=O)Nc1ccc(Cl)c(Cl)c1	-29.3
CCN(CC)C(=O)Sc1nc2ccccc2c(=O)n1CC1CC1	14.8
C[C@H]1CN([C@@H](C)CO)C(=O)Cc2cc(NC(=O)Nc3ccc(C(F)(F)F)cc3)ccc2O[C@H]1CN(C)C(=O)NC1CCCCC1	64.8
O=c1ccc2cc3ccoc3cc2o1	4.3
CCn1c(SCC(=O)O)nnc1-c1ccc(OC)cc1	-32.5
Cc1cc(C)c(C#N)c(SCC(O)CS(=O)(=O)c2ccc(C(C)(C)C)cc2)n1 (configuration not stated)	24.4
O=C(CSc1nc2sc3c(c2c(=O)n1Cc1ccco1)CCC3)N1CCCc2ccccc21	18.3
O=C(CCCOc1ccc(Cl)cc1Cl)Nc1ccc2c(c1)OCCO2	9.5
Cc1ccc([N+](=O)[O-])cc1NS(=O)(=O)c1cccc(C(=O)Nc2ccccc2)c1	-4.1
CC(C)(C)c1ccc(S(=O)(=O)NCC(=O)Nc2ccc(F)cc2)cc1	23.2
C[C@H](CO)N1C[C@H](C)[C@H](CN(C)S(=O)(=O)c2ccc(Cl)cc2)Oc2c(NC(=O)NC3CCCCC3)cccc2C1=O	120.4*
COc1ccc(NC(=O)Nc2ccc3c(c2)C(=O)N([C@@H](C)CO)C[C@@H](C)[C@H](CN(C)S(=O)(=O)c2ccc(F)cc2)O3)cc1	5.4
C[C@H]1CN([C@@H](C)CO)C(=O)Cc2cc(NC(=O)c3ccncc3)ccc2O[C@H]1CN(C)C(=O)Nc1ccccc1	-0.1
CC(C)=CCCC(C)(O)C(O)Cc1cc(C(=O)O)cc(CC=C(C)C)c1O (configuration not stated)	35.9
C[C@H](CO)N1C[C@H](C)[C@H](CN(C)S(=O)(=O)c2ccccc2)Oc2c(NS(=O)(=O)c3ccc(F)cc3)cccc2C1=O	0.8
CC(C)C(=O)Nc1cccc(-c2nc3ccccc3c(=O)o2)c1	28.2
C[C@@H]1CN([C@@H](C)CO)C(=O)c2cc(NC(=O)Nc3ccc4c(c3)OCO4)ccc2O[C@H]1CN(C)Cc1ccc(C(F)(F)F)cc1	92.7*
C=CCN1C(=O)/C(=C\c2ccc(OC(=O)c3ccco3)c(OC)c2)SC1=S	64.7
CCCC(=O)Nc1ncnc2c1ncn2[C@@H]1O[C@@H]2OP(=O)(O)OC[C@H]2[C@H]1OC(=O)CCC	-6.7
O=C(CSc1nccc(=O)[nH]1)Nc1cccc(C(F)(F)F)c1	30.9
C[C@@H]1CCCCO[C@H](CN(C)Cc2ccc(Cl)c(Cl)c2)[C@@H](C)CN([C@H](C)CO)C(=O)c2cc(NC(=O)CCCCCC(=O)Nc3ccccc3N)ccc2O1	125.7*
Cc1cccc(C(C)C)c1NC(=O)CN(C1CCCCC1)S(C)(=O)=O	-0.8
Cc1ccc(S(=O)(=O)Nc2ccc3c(c2)CC(=O)N([C@@H](C)CO)C[C@@H](C)[C@@H](CN(C)S(=O)(=O)c2cn(C)cn2)O3)cc1	4.9
CCCCC[C@H](O)/C=C/[C@@H]1[C@H]2C/C(=C/CCCC(=O)O)C[C@H]2C[C@H]1O	21.8
COc1ccc(OC)c(NC(=O)CSc2nnnn2-c2ccccc2)c1	10.3
C[C@H](CO)N1C[C@H](C)[C@@H](CN(C)CC2CCCCC2)Oc2c(NS(=O)(=O)c3ccc(Cl)cc3)cccc2C1=O	18.4
Cc1ccc(OCC(=O)Nc2ccc3oc(-c4ccc(F)cc4Cl)nc3c2)cc1	45.7
COc1ccc(CN(C)C[C@H]2Oc3ccc(NC(=O)Nc4ccc5c(c4)OCO5)cc3C(=O)N([C@H](C)CO)C[C@@H]2C)cc1	5.9
ONC=Nc1ccc2nnc(-c3ccccc3)n2n1	61.0
COc1cccc(NC(=O)CC2C(=O)NC3CCCCC3N2C(=O)c2ccccc2)c1 (configuration not stated)	-17.1
Cn1c(=O)cc(N2CCOCC2)c2c(=O)n(-c3ccccc3)c(=O)n(-c3ccccc3)c21	6.7
O=c1c2ccccc2oc2ccc(O)cc12	-4.1
Cc1noc(C)c1NC(=O)Nc1cccc2c1O[C@H](CN(C)C(=O)Nc1ccc(C(F)(F)F)cc1)[C@@H](C)CN([C@H](C)CO)C2=O	15.7
COC(=O)c1cccc(NC(=O)CN2C(=O)c3ccccc3S2(=O)=O)c1C	27.5
C[C@@H]1CN([C@H](C)CO)C(=O)Cc2cc(N(C)C)ccc2O[C@@H]1CN(C)Cc1ccccc1	124.5*
CCN1/C(=C\C(=S)Nc2ccccc2)Sc2ccccc21	44.4
Cc1noc(C)c1NC(=O)N(C)C[C@H]1Oc2ccc(NC(=O)Nc3ccc(F)cc3)cc2CC(=O)N([C@H](C)CO)C[C@H]1C	-13.7
C[C@H](CO)N1C[C@H](C)[C@H](CN(C)Cc2ccc(C(=O)O)cc2)Oc2ccc(NC(=O)c3ccncc3)cc2C1=O	-9.8
CN(C)C(=O)CSc1nc2ccccc2c(=O)[nH]1	-18.3
CCCn1c(-c2cccs2)n[nH]c1=O	-1.6
C[C@@H]1CCCCO[C@@H](CN(C)S(=O)(=O)c2ccc(F)cc2)[C@@H](C)CN([C@H](C)CO)C(=O)c2cc(NC(=O)CCCCCC(=O)Nc3ccccc3N)ccc2O1	7.9
C[C@@H]1CCCCO[C@@H](CN(C)C(=O)Nc2ccc3c(c2)OCO3)[C@@H](C)CN([C@H](C)CO)C(=O)c2cc(NC(=O)Nc3ccccc3)ccc2O1	0.7
C[C@@H]1CN([C@H](C)CO)C(=O)c2cc(NC(=O)Cc3cn(C)c4ccccc34)ccc2O[C@@H]1CN(C)C(=O)Nc1ccc(F)cc1	23.2
CCCn1c2ccccc2c2nnc(SCC(=O)O)nc21	9.2
CC(=O)Nc1ccc2oc3ccccc3c2c1	4.4
C[C@H]1CN([C@@H](C)CO)C(=O)c2cc(NS(=O)(=O)c3ccccc3)ccc2O[C@H]1CN(C)Cc1ccc(C(F)(F)F)cc1	32.8
COc1ccc(S(=O)(=O)Nc2cccc3c2O[C@H](CN(C)Cc2ccccc2)[C@@H](C)CN([C@H](C)CO)C3=O)cc1	-2.6
Cc1nnc(SCC(=O)Nc2ccccc2C(F)(F)F)n1-c1ccc(Cl)cc1	-2.5
O=C(c1ccccc1)c1cccc(N=Cc2c(O)[nH]c(=O)[nH]c2=O)c1	-14.6
Cc1noc(C)c1NC(=O)Nc1cccc2c1O[C@@H](CN(C)Cc1ccc(C(=O)O)cc1)[C@@H](C)CN([C@H](C)CO)C2=O	-3.0
C[C@@H]1CN([C@H](C)CO)C(=O)c2cc(NS(=O)(=O)c3ccc(F)cc3)ccc2O[C@@H]1CN(C)C(=O)NC1CCCCC1	0.4
COc1ccc(N(CC(=O)Nc2cc(C)ccc2OC)S(C)(=O)=O)cc1Cl	-3.2
CC(C)C[C@](CC(=O)OCc1ccc(O[C@@H]2O[C@H](CO)[C@@H](O)[C@H](O)[C@H]2O)cc1)(O[C@@H]1O[C@H](CO)[C@@H](O)[C@H](O)[C@H]1O)C(=O)OCc1ccc(O[C@@H]2O[C@H](CO)[C@@H](O)[C@H](O)[C@H]2O)cc1	94.9*
CC1CCc2c(sc3ncnc(NCc4ccco4)c23)C1 (configuration not stated)	8.9

Continued (2 carried over from the part before).
SMILES	NOMO-1 viab
CC(C)C[C@](CC(=O)OCc1ccc(O[C@@H]2O[C@H](CO)[C@@H](O)[C@H](O)[C@H]2O)cc1)(O[C@@H]1O[C@H](CO)[C@@H](O)[C@H](O)[C@H]1O)C(=O)OCc1ccc(O[C@@H]2O[C@H](CO)[C@@H](O)[C@H](O)[C@H]2O)cc1	94.9*
CC1CCc2c(sc3ncnc(NCc4ccco4)c23)C1 (configuration not stated)	8.9
COc1ccc(S(=O)(=O)Nc2ccc3c(c2)C(=O)N([C@@H](C)CO)C[C@H](C)[C@H](CN(C)S(=O)(=O)c2cn(C)cn2)O3)cc1	-2.4
C[C@H](CO)N1C[C@H](C)[C@H](CN(C)S(=O)(=O)c2ccc(F)cc2)Oc2ccc(NC(=O)C3CC3)cc2CC1=O	7.6
O=C(CC(Sc1ccccc1C(=O)O)c1ccc(F)cc1)c1ccc(F)cc1 (configuration not stated)	116.6*
N#Cc1c(NC(=O)CSc2ncn(-c3ccccc3)n2)sc2c1CCCC2	18.7
C[C@@H]1CN([C@@H](C)CO)C(=O)c2cc(NC(=O)Nc3cccc4ccccc34)ccc2O[C@H]1CN(C)Cc1ccc(C(F)(F)F)cc1	86.6*
Cc1ccc(S(=O)(=O)Nc2ccc3c(c2)CC(=O)N([C@H](C)CO)C[C@@H](C)[C@@H](CN(C)S(C)(=O)=O)O3)cc1	9.1
C[C@H](CO)N1C[C@H](C)[C@H](CN(C)C(=O)Nc2ccc3c(c2)OCO3)Oc2ccc(NS(=O)(=O)c3cn(C)cn3)cc2C1=O	3.0
Cc1ccc(OCC(=O)Nc2cc(C(F)(F)F)ccc2N2CCOCC2)c(C)c1	67.7
COc1ccc(NC(=O)N(C)C[C@H]2Oc3c(NC(=O)c4ccncc4)cccc3C(=O)N([C@H](C)CO)C[C@H]2C)cc1	0.0
C[C@H]1CN([C@@H](C)CO)C(=O)Cc2cc(NC(=O)Nc3ccccc3)ccc2O[C@H]1CN(C)Cc1ccncc1	19.2
Cc1noc(C)c1NC(=O)N(C)C[C@@H]1Oc2c(NC(=O)NC(C)C)cccc2C(=O)N([C@H](C)CO)C[C@@H]1C	-1.8
COc1ccc(CN(C)C[C@@H]2OCCCC[C@@H](C)Oc3ccc(NC(=O)c4ccccc4)cc3C(=O)N([C@H](C)CO)C[C@@H]2C)cc1	37.7

Exported with each value named: three of the compounds above
Molecule: Cc1ccc(S(=O)(=O)Nc2ccc3c(c2)CC(=O)N([C@H](C)CO)C[C@@H](C)[C@@H](CN(C)S(C)(=O)=O)O3)cc1
  NOMO-1 viab = 9.1

Molecule: COc1ccc(NC(=O)N(C)C[C@H]2Oc3c(NC(=O)c4ccncc4)cccc3C(=O)N([C@H](C)CO)C[C@H]2C)cc1
  NOMO-1 viab = 0.0

Molecule: C[C@H](CO)N1C[C@H](C)[C@H](CN(C)C(=O)Nc2ccc3c(c2)OCO3)Oc2ccc(NS(=O)(=O)c3cn(C)cn3)cc2C1=O
  NOMO-1 viab = 3.0

The list is partial (hit frequency here may not be typical).
